# Source: PubChem (National Center for Advancing Translational Sciences (NCATS))
# MARV entry inh = Marburg virus entry inhibition. Marburg virus pseudotyped entry inhibition, cell reporter; control for the full effect not named in the record; about a third of the inactives were read at about 46 µM. Potency, µM (titrated, usually from 37.8 µM), inactives show top-dose activity change, negative = inhibition, hits mostly inhibitors. 300,000 compounds, 1.8% hits. AID 540276; active = well fitted inhibition curve with a large enough effect; inconclusive = small, poorly fitted or top-dose-only effect, or effect the other way; inactive = flat fitted curve, though single readings scatter; tested in HEK293 cells; about a fifth of its hits are not listed in these tables; note: % is set by controls: 0 for no effect and ±100 for the full control effect; luciferase read-out
# Cruzain inh noDet = cruzain (T. cruzi) inhibition without detergent; purified cruzain, Z-FR-AMC fluorescence, no detergent; 200,000 compounds, 2.3% hits; Potency, µM, for inactives: max response, negative = inhibition, usual class: inhibitors; P25779; AID 1476;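 note: plate controls were enzyme without inhibitor for no effect and buffer without enzyme for full effect; nearly all actives have a fitted effect of over 40% in size; top concentration of the series not given in the record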
# Target sequence (P25779 123-467 limits assumed): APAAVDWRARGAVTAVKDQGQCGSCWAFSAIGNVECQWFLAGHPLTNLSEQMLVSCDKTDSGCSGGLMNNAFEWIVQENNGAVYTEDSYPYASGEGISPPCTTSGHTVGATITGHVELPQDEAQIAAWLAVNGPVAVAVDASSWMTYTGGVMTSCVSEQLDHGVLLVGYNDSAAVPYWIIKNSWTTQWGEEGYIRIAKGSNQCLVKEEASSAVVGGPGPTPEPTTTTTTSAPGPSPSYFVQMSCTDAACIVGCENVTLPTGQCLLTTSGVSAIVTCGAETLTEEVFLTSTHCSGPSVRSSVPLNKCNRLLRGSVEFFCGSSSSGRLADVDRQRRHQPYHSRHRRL
#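 Purified cruzain at 1.5 nM, pre-incubated 15 min with compound at room temperature in 100 mM sodium acetate pH 5.5, 5 mM DTT, 0.00005% Triton X-100. Reaction started with 2 uM Z-FR-AMC; AMC fluorescence increase over 60 s gives rate.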
# StopGo reporter = lowers the luciferase signal of an FMDV 2A StopGo reporter; AID 1159524; 410,000 compounds, 1.2% hits; human cells with a luciferase reporter of 2A StopGo recoding; control for the full effect not named in the record; Potency, µM (highest dose often 57.9 µM), for inactives: top-dose signal change, negative = less light; active = well fitted falling curve with a large enough effect; inconclusive = small, poorly fitted or top-dose-only effect; inactive = no such curve, though single readings can be large or run the other way; tested in HEK293T cells; note: % is set by controls: 0 for no effect and ±100 for the full control effect; nearly all actives have a fitted effect of over 45% in size; luciferase light after 4 h
# SARS PLP yeast = inhibitors of SARS-CoV papain-like protease in yeast. S. cerevisiae expressing SARS-CoV PLpro, growth rescue; control for the full effect not named in the record. Potency, µM (doses to about 32.9 µM), inactives show at the highest dose activity, positive = growth rescue. 330,000 compounds, 0.19% hits; active means well fitted rising curve with a large enough effect; inconclusive means small, poorly fitted or top-dose-only effect; inactive means no such curve, though single readings can be large or run the other way; note: 0% is about no effect; nearly all actives have a fitted effect of over 55% in size; growth read by luminescence after 48 h
# NS1 inh = inhibitors of influenza NS1 protein function; S. cerevisiae slowed by influenza A NS1, growth recovery by OD600; Potency, µM (titrated, usually from 46.1 µM), without a hit: at the highest dose activity, positive = more growth; 270,000 compounds, 0.4% hits; active means well fitted rising curve with a large enough effect; inconclusive means small, poorly fitted or top-dose-only effect; inactive means no such curve, though single readings can be large or run the other way; note: nearly all actives have a fitted effect of over 50% in size
#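 Read-out: OD600 growth recovery of NS1-expressing budding yeast. Cells grown overnight at 30C in -URA glucose medium, washed, resuspended and diluted 1:100 in 2% galactose assay medium, pH 6.0. Same strain lacking NS1 served as positive control.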
# RE007 growth inh = less growth of the S. pombe RE007 Vpr strain. S. pombe RE007 Vpr strain, BacTiter-Glo ATP luminescence, 24 h; control for the full effect not named in the record. Potency, µM (doses to about 92.2 µM), for the others: top-dose activity change, negative = less growth. 360,000 compounds, 0.21% hits. AID 651644; active = well fitted falling curve with a large enough effect; inconclusive = small, poorly fitted or top-dose-only effect; inactive = no such curve, though single readings can be large or run the other way;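 note: % is set by controls: 0 for no effect and ±100 for the full control effect; nearly all actives have a fitted effect of over 50% in size; the assay follows cell death caused by Vpr and the record does not say whether a fall means rescue or toxicity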
#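 Fission yeast strain RE007, carrying one chromosomally integrated HIV-1 vpr copy, was seeded at OD 0.01 in PMG+AL medium with 23 nL pinned compound. After 24 h at 30 °C and 99% humidity, viability was read by BacTiter-Glo luminescence.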
# Lassa entry inh = blocks Lassa virus binding to or entry into cells; Lassa virus pseudotype entry inhibition, cell reporter; control for the full effect not named in the record; AID 540256; 300,000 compounds, 1.2% hits; Potency, µM (titrated, usually from 37.9 µM), without a hit: at the highest dose activity change, negative = inhibition, hits mostly inhibitors; active means well fitted inhibition curve with a large enough effect; inconclusive means small, poorly fitted or top-dose-only effect, or effect the other way; inactive means flat fitted curve, though single readings scatter; tested in HEK293 cells; note: % is set by controls: 0 for no effect and ±100 for the full control effect; nearly all actives have a fitted effect of over 50% in size; luciferase read-out
# Cruzain Triton = cruzain (T. cruzi) inhibition with detergent | Potency, µM, for inactives: max response, negative = inhibition, usual class: inhibitors | AID 1478 | 200,000 compounds, 0.43% hits | purified cruzain, Z-FR-AMC fluorescence, 0.01% Triton;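 note: plate controls were neutral wells for no effect and buffer without enzyme for full effect; nearly all actives have a fitted effect of over 40% in size; top concentration of the series not given in the record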
#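 In this qHTS format, compounds are incubated with 1.5 nM cruzain for 15 min at room temperature before 2 uM Z-FR-AMC is added. Release of AMC is followed at 360/450 nm, and progress is taken as the 60 s fluorescence difference.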
# * marks the source's active call; other numbers are inactive results; ? = inconclusive; . = not tested or not shown; & = joins results of further samples; [ ] = dose if it differs, or a comment. Unless noted, calls come from the whole dose curve; as a rule, active = well fitted curve in the direction sought with a large enough effect; inconclusive = small, poorly fitted or top-dose-only effect, or another doubt; inactive = no such curve, though single readings can be large; an effect the other way counts as inactive or inconclusive. Potency is the fitted concentration of half-maximal effect.
SMILES,MARV entry inh,Cruzain inh noDet,StopGo reporter,SARS PLP yeast,NS1 inh,RE007 growth inh,Lassa entry inh,Cruzain Triton
Cc1ccc(CNC(=O)c2ccc3c(c2)NC(=O)C(CS(=O)(=O)Cc2cccc(C)c2)N3)cc1 (stereo unspecified),.,-21%,-13%,.,.,.,16%[46.1 µM],-1.7%
COc1cc(-c2nc3ccc4ccccc4c3c3c2CCC3)cc(OC)c1OC,-17%,27%,?,-12%,7%,-10%,-21%,2.7%
CCOC(=O)Nc1ccc2c(c1)N(C(=O)N1CCN(C)CC1)c1ccccc1S2,?,2%,0%,4%,-5%,3%,5%,0.1%
COc1cc(OC)cc(C(C(=O)NC2CCCCC2)N(C(=O)c2ccno2)c2ccccc2)c1 (stereo unspecified),22%,23%,10%,1%,-2%,-20%,9%,3.2%
COc1ccc(NC(=O)c2cc3cc(C)ccc3n2C)cc1,2%[46.1 µM],?,8%,.,.,.,-1%[46.1 µM],-5.1%
C=CCOc1ccc(CN(C)C(=O)CNC(=O)c2ccc(-c3ccccc3)cc2)cc1,?,.,13µM*,0%,3%,-15%,?,.
Cc1cc(OC(C)C(=O)NCc2ccccn2)c2c(C)c(Cc3ccccc3)c(=O)oc2c1 (stereo unspecified),-2%[46.1 µM],.,4%,3%,4%,-14%,1%[46.1 µM],.
Cc1cc(C(C)(C)C)c(O)c(C(C)(C)C)c1,.,-2%&5%,-4%&-22%,0%,5%,3%,.,1.8%&1.3%
COc1ccc(NC(=O)N2CCCc3ccccc32)c(OC)c1,14%[46.1 µM],.,-1%,2%,-17%,2%,?,.
Cc1cc(-n2c(C)cc(C(=O)CSc3ncnc4ccccc34)c2C)no1,9.2µM*,5%,13µM*,2%,-9%,-20%,?,-1.5%
C/C(=N\NC(=O)c1ccc(Cn2cc([N+](=O)[O-])cn2)o1)c1cccc(NC(=O)c2cccnc2)c1,3%,14%,-3%,19%,10%,6%,-4%,-2.4%
CCN1CCN(C(=O)/C(=C/c2cccs2)NC(=O)c2ccc(C)c(C)c2)CC1,-19%[46.1 µM],.,-6%,-4%,12%,11%,0%[46.1 µM],.
COC(=O)CSc1nnc(CNC(=O)c2ccccc2OC)n1-c1ccc(OC)cc1,-11%,2%,6%,2%,5%,10%,-5%,4.3%
O=C(CCc1nnc(CCCCc2ccccc2)o1)NCCc1cccnc1,4%[46.1 µM],.,7%,-1%,0%,-9%,1%,.
COc1cc2c(cc1OC)C(COc1ccc(C(C)C)cc1)NCC2 (stereo unspecified),.,.,?,0%,-1%,-10%,.,.
CCCCCCC(c1c(C)n(C)n(-c2ccccc2)c1=O)c1c(C)n(C)n(-c2ccccc2)c1=O,-2%&-2%,?,31%[activator],-8%,-4%,2%,-9%,-4.7%
Cc1cc(C)c(Cn2c(=O)n(CCC(=O)NCc3ccc4c(c3)OCO4)c(=O)c3ccccc32)c(C)c1,11%[46.1 µM],14%,8%,.,.,.,0%[46.1 µM],-0.2%
O=S(=O)(/N=C(/Nc1ccccn1)c1ccccc1)c1ccc(Cl)cc1,3%,4%,34%[activator],-1%,9%,-15%,3%,8.2%
CCOC(=O)C1CCCN(C(=O)CC(c2ccccc2)c2ccccc2)C1 (stereo unspecified),?,26%,-13%,-3%,-5%,-11%,?,0.7%
Cc1cc(C=O)c(C)n1-c1cccc(C(=O)O)c1,3%[46.1 µM],.,-5%,1%,5%,-13%,4%,.
Cn1c(CC(=O)Nc2ccccc2)nnc1SCC(=O)NC1=NCCS1,-9%[46.1 µM],.,33%[activator],-3%,9%,11%,8%,.
Cc1ccc2[nH]c(=O)c(CN(CCCO)C(C)c3nnnn3Cc3ccco3)cc2c1 (stereo unspecified),-8%,.,40%[activator],-1%,-4%,-2%,?,.
O=C(COC(=O)c1ccc(Br)cc1)NC1CCCC1,0%[46.1 µM],.,18%,-2%,-24%,-13%,2%[46.1 µM],.
CC(=O)NCCc1nc2cc(NS(=O)(=O)c3ccc(Cl)cc3)ccc2n1C,.,.,1%,4%,-4%,-5%,.,.
Cc1ccc(Nc2ncc3c(n2)CC(C)(C)CC3=O)cc1,.,.,30%[activator],1%,-5%,-24%,.,.
O=C(Nc1ccc(NC(=O)c2ccccc2Cl)nc1)c1ccco1,?,.,9%,-2%,-36%,-17%,?,.
CCc1ccc(NS(=O)(=O)c2ccc(C)c(C(=O)N3CCOCC3)c2)cc1,.,.,4%,-3%,8%,5%,.,.
Cc1ccccc1Nc1nnc(-c2ccc(C(=O)NCCO)cc2)c2ccccc12,.,.,29%,2%,-1%,2%,.,.
COc1ccc(N(C(=O)c2ccc(Cl)cc2)S(=O)(=O)c2ccc(C)cc2)cc1,.,-22%,-19%,.,.,.,?,-2.2%
Cc1ccc(S(=O)(=O)c2cn(CC(=O)Nc3ccccc3)c3ccc(F)cc3c2=O)cc1,-3%,-1%,20%,-11%,-20%,-6%,19%,-3.5%
Cc1ccc(Cn2c(SCC(=O)NCc3ccco3)nc3ccsc3c2=O)cc1,?,-12%,-9%,8%,-5%,11%,-2%,-2.0%
CC(=O)c1c(C)oc2ccc(N(C(C)=O)S(=O)(=O)c3cccc4cccnc34)cc12,?,.,?,0%,-3%,1%,.,.
Clc1ccccc1CSc1nnc([C@@H]2CCCN2)o1,-24%,.,1%,-2%,7%,7%,4%,.
NC(=O)c1c(NC(=O)c2ccccc2)sc2c1CCN(Cc1ccccc1)C2,.,.,9%,2%,4%,-3%,.,.
CN(C(=O)Nc1cccc([N+](=O)[O-])c1)c1ccccc1,?,.,-5%,.,.,-10%,12%,.
COc1ccc(C(=O)NC(=S)N2CC(C)OC(C)C2)cc1OC (stereo unspecified),-16%[46.1 µM],.,-1%,1%,9%,-21%,13%[46.1 µM],.
COc1ccc(-c2cc3ccccc3oc2=O)cc1NC(=O)c1ccc(Br)o1,?,25µM*,17%,-1%,-25%,14%,8%,-21%
Cc1cccc(-c2c3c(=O)n(C)c(=O)n(C)c3cn2CCO)c1,-9%,-4%,-19%,1%,-6%,-1%,4%,-3.1%
O=C(O)c1ccc(Cl)c(NCc2ccncc2)c1,-23%,.,4%,5%,22%,4%,?,.
CCOC(=O)c1cc(-c2cccc([N+](=O)[O-])c2)on1,-1%[46.1 µM],.,-20%,0%,-2%,0%,6%[46.1 µM],.
Cc1ccc(S(=O)(=O)Cn2nnnc2CN2CCN(C(=O)c3ccco3)CC2)cc1,19%,3%,12%,7%,-3%,1%,14%,4.8%
CCOc1ccc(CCNC(=O)C2CCC(=O)N2C2CCCCC2)cc1OCC (stereo unspecified),2%,4%,3%,4%,-17%,-7%,-5%,2.8%
COc1ccccc1CNc1nc2ccc(Cl)cc2n2cnnc12,11%[46.1 µM],8%,15%,.,.,.,3%[46.1 µM],2.4%
CCOC(=O)/C(C#N)=C/c1ccc(OCC(=O)Nc2ccccc2)c(OC)c1,?,4%,42%[activator],1%,6%,10%,-7%,-15%
COC(=O)c1ccc2c(=O)n(CCCCCC(=O)NCc3ccccn3)c(=O)[nH]c2c1,2%,-6%,-2%,9%,-4%,0%,11%,-2.2%

# Overlap with the part before: 2 entries, then new ones.
SMILES,MARV entry inh,Cruzain inh noDet,StopGo reporter,SARS PLP yeast,NS1 inh,RE007 growth inh,Lassa entry inh,Cruzain Triton
CCOC(=O)/C(C#N)=C/c1ccc(OCC(=O)Nc2ccccc2)c(OC)c1,?,4%,42%[activator],1%,6%,10%,-7%,-15%
COC(=O)c1ccc2c(=O)n(CCCCCC(=O)NCc3ccccn3)c(=O)[nH]c2c1,2%,-6%,-2%,9%,-4%,0%,11%,-2.2%
Cc1nn2c(N3CCCC3)c3c(nc2c1-c1ccccc1)CCC3,3%[46.1 µM],.,-13%,0%,-2%,-6%,-23%,.
N#CCN1CCN(CC(=O)Nc2cccc3ccccc23)CC1,0%,0%,2%,-2%,-8%,9%,-18%,1.0%
Cc1cccc(NC(=O)COc2ccc3oc4c(c3c2)CCCC4)c1,?,-8%,-18%,.,.,.,0%[46.1 µM],-7.7%
O=C(CN1C(=O)NC2(CCCCC2)C1=O)Nc1ccc(N2CCCCC2)cc1,8%[46.1 µM],.,-4%,-5%,.,-10%,9%[46.1 µM],.
COc1ccc(-n2c(SCC(=O)N3CCCCC3)nnc2-c2cccnc2)cc1,22%,0%,-2%,3%,-6%,4%,-5%,3.1%
O=C(O)CSc1nccc2ccccc12,20%[46.1 µM],.,13%,0%,-2%,2%,-13%,.
Cc1ccc(NC(=O)C(Cc2ccccc2)NS(=O)(=O)c2ccc3c(c2)c(=O)n(C)c(=O)n3C)cc1 (stereo unspecified),-16%[46.1 µM],6%,-4%,.,.,.,-3%[46.1 µM],-0.1%
Cc1ccc(CNC(=O)c2ccc3c(c2)NC(=O)C(CS(=O)(=O)Cc2cccc(F)c2)N3)cc1 (stereo unspecified),.,-6%,-7%,.,.,.,11%[46.1 µM],2.6%
CCOc1cc(/C=C/C(=O)OCC(=O)NCc2ccco2)cc(Cl)c1OC,-3%,.,-19%,23%,.,0%,-23%[46.1 µM],.
COc1ccc(C(=O)Oc2ccc3oc(=O)sc3c2)cc1,-5%,-2%,37%[activator],1%,-3%,31%,3%,-5.1%
COC(=O)CSc1nc(N2CCOCC2)c2c(c1C#N)CC(C)(C)OC2,?,.,-11%,0%,-4%,2%,20%[46.1 µM],.

# Compound profiles (already shown):
# Cc1cccc(NC(=O)COc2ccc3oc4c(c3c2)CCCC4)c1 is listed as MARV entry inh = ?; Cruzain inh noDet = -8%; StopGo reporter = -18%; SARS PLP yeast = .; NS1 inh = .; RE007 growth inh = .; Lassa entry inh = 0%[46.1 µM]; Cruzain Triton = -7.7%
# Cc1nn2c(N3CCCC3)c3c(nc2c1-c1ccccc1)CCC3 is listed as MARV entry inh = 3%[46.1 µM]; Cruzain inh noDet = .; StopGo reporter = -13%; SARS PLP yeast = 0%; NS1 inh = -2%; RE007 growth inh = -6%; Lassa entry inh = -23%; Cruzain Triton = .
